# StopGo reporter: FMDV 2A StopGo reporter, luciferase signal; human cells with a luciferase reporter of 2A StopGo recoding; control for the full effect not named in the record; Potency, µM (series often up to 57.9 µM), inactives show at the highest dose signal change, negative = less light; 1.2% of 410,000 active; AID 1159524; active = well fitted falling curve with a large enough effect; inconclusive = small, poorly fitted or top-dose-only effect; inactive = no such curve, though single readings can be large or run the other way; tested in HEK293T cells; also: % is scaled to controls: 0 for no effect and ±100 for the full control effect; nearly all actives have a fitted effect of over 45% in size; luciferase light after 4 h
# LASV entry inh: Lassa virus entry inhibition; Lassa virus pseudotype entry inhibition, cell reporter; control for the full effect not named in the record; Potency, µM (top dose mostly 37.9 µM), for inactives: at the highest dose activity change, negative = inhibition, usual class: inhibitors; 1.2% of 300,000 active; active means well fitted inhibition curve with a large enough effect; inconclusive means small, poorly fitted or top-dose-only effect, or effect the other way; inactive means flat fitted curve, though single readings scatter; tested in HEK293 cells; also: % is scaled to controls: 0 for no effect and ±100 for the full control effect; nearly all actives have a fitted effect of over 50% in size; luciferase read-out
# Cruzain Triton: inhibitors of Trypanosoma cruzi cruzain with detergent. purified cruzain, Z-FR-AMC fluorescence, 0.01% Triton. Potency, µM, for the others: max response, negative = inhibition, most hits filed as inhibitors. P25779. 0.43% of 200,000 active. AID 1478; active = well fitted curve in the direction sought with a large enough effect; inconclusive = small, poorly fitted or top-dose-only effect, or another doubt; inactive = no such curve, though single readings can be large; an effect the other way counts as inactive or inconclusive;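 also: plate controls were neutral wells for no effect and buffer without enzyme for full effect; nearly all actives have a fitted effect of over 40% in size; top concentration of the series not given in the record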
# Target sequence (P25779 123-467 limits assumed): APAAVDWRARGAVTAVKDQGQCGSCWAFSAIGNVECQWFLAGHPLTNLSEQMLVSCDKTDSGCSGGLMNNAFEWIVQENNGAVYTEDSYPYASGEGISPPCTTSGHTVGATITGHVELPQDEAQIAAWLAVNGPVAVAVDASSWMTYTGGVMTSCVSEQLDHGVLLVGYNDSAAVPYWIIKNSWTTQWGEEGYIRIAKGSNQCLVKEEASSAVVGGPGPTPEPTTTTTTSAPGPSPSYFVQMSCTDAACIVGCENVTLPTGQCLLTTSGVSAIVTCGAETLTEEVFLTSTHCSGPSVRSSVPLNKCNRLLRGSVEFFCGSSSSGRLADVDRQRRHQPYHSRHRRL
#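 15 min RT preincubation of 1.5 nM cruzain with compound, then 2 uM Z-FR-AMC added; kinetic AMC fluorescence, 60 s delta. Triton X-100 0.01%, pH 5.5.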
# SARS PLP yeast: SARS-CoV PLP inhibition in yeast; S. cerevisiae expressing SARS-CoV PLpro, growth rescue; control for the full effect not named in the record; Potency, µM (series often up to 32.9 µM), for the others: at the highest dose activity, positive = growth rescue; 0.19% of 330,000 active; also: 0% is about no effect; nearly all actives have a fitted effect of over 55% in size; growth read by luminescence after 48 h
# Cruzain inh noDet: cruzain (T. cruzi) inhibition without detergent; P25779; purified cruzain, Z-FR-AMC fluorescence, no detergent; Potency, µM, for the others: max response, negative = inhibition, actives largely listed as inhibitors; 2.3% of 200,000 active; active = well fitted curve in the direction sought with a large enough effect; inconclusive = small, poorly fitted or top-dose-only effect, or another doubt; inactive = no such curve, though single readings can be large; an effect the other way counts as inactive or inconclusive;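 also: plate controls were enzyme without inhibitor for no effect and buffer without enzyme for full effect; nearly all actives have a fitted effect of over 40% in size; top concentration of the series not given in the record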
#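 Detergent-free condition (0.00005% Triton X-100) in acetate buffer pH 5.5 with DTT. 1.5 nM enzyme and compound were pre-mixed 15 min, then 2 uM Z-FR-AMC substrate added; reaction progress from fluorescence change between first and third reads (60 s).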
# NS1 inh: blocks influenza NS1 protein function | S. cerevisiae slowed by influenza A NS1, growth recovery by OD600 | 0.4% of 270,000 active | Potency, µM (doses to about 46.1 µM), inactives show at the top dose activity, positive = more growth | AID 2326; also: actives are rising curves; nearly all actives have a fitted effect of over 50% in size
#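 In this qHTS, NS1 from influenza A is expressed in budding yeast, where it slows growth. Cells are switched from glucose to 2% galactose medium (pH 6.0, -URA), treated with compound, and growth recovery is read at OD600.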
# MARV entry inh: Marburg virus entry inhibition | 1.8% of 300,000 active | Potency, µM (top dose mostly 37.8 µM), for the others: at the top dose activity change, negative = inhibition, usual class: inhibitors | Marburg virus pseudotyped entry inhibition, cell reporter; control for the full effect not named in the record; about a third of the inactives were read at about 46 µM; active = well fitted inhibition curve with a large enough effect; inconclusive = small, poorly fitted or top-dose-only effect, or effect the other way; inactive = flat fitted curve, though single readings scatter; tested in HEK293 cells; about a fifth of its hits are not listed in these tables; also: % is scaled to controls: 0 for no effect and ±100 for the full control effect; luciferase read-out
# RE007 growth inh: less growth of the S. pombe RE007 Vpr strain. Potency, µM (top dose mostly 92.2 µM), without a hit: at the highest dose activity change, negative = less growth. AID 651644. 0.21% of 360,000 active. S. pombe RE007 Vpr strain, BacTiter-Glo ATP luminescence, 24 h; control for the full effect not named in the record; active = well fitted falling curve with a large enough effect; inconclusive = small, poorly fitted or top-dose-only effect; inactive = no such curve, though single readings can be large or run the other way;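 also: % is scaled to controls: 0 for no effect and ±100 for the full control effect; nearly all actives have a fitted effect of over 50% in size; the assay follows cell death caused by Vpr and the record does not say whether a fall means rescue or toxicity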
#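 Fission yeast strain RE007, carrying one chromosomally integrated HIV-1 vpr copy, was seeded at OD 0.01 in PMG+AL medium with 23 nL pinned compound. After 24 h at 30 °C and 99% humidity, viability was read by BacTiter-Glo luminescence.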
# An asterisk follows results filed as active; ? = inconclusive; . = not tested or not shown; [ ] = remark or other dose. Unless noted, calls follow the shape of the dose curve; as a rule, active means well fitted rising curve with a large enough effect; inconclusive means small, poorly fitted or top-dose-only effect; inactive means no such curve, though single readings can be large or run the other way. Potency is read from the fitted curve at half-maximal effect.
SMILES,StopGo reporter,LASV entry inh,Cruzain Triton,SARS PLP yeast,Cruzain inh noDet,NS1 inh,MARV entry inh,RE007 growth inh
CC(C)C(=O)NCC(c1cccs1)S(=O)(=O)c1ccc(F)cc1 (stereo unspecified),0%,-11%[46.1 µM],.,0%,.,-2%,20%[46.1 µM],-12%
Nc1c(C(=O)NCc2ccccc2)nnn1Cc1cccc(Cl)c1,-22%,.,-0.1%,7%,-28%,-15%,-1%,5%
Cc1ccc2nc(N(CCCN(C)C)C(=O)c3ccc(S(=O)(=O)N4CCOCC4)cc3)sc2c1,-20%,.,.,-5%,.,0%,.,-2%
O=C1c2oc3ccccc3c(=O)c2C(c2ccccc2)N1Cc1ccc2c(c1)OCO2 (stereo unspecified),26%,10%[46.1 µM],-1.2%,.,3%,.,.,.
O=[N+]([O-])c1ccc(O)c(Nc2ncnc3ccccc23)c1,1%,10%,.,0%,.,0%,4%,3%
COc1cc(SC)ccc1C(=O)Nc1cccc(S(=O)(=O)NC2=NCCCCC2)c1,?,-27%[46.1 µM],.,-1%,.,.,-24%,17%
NC(=O)c1ccc(NC(=O)COc2cccc3c2CCNC3=O)cc1,-6%,12%,.,27%,.,.,0%,8%
CCOC(=O)C(Oc1ccc(=O)n(-c2ccccc2)n1)C(C)=O (stereo unspecified),-21%,9%,1.9%,2%,1%,?,2%,3%
O=c1c2ccccc2oc2nc3n(c(=O)c12)CCCS3,.,6%,-3.4%,-7%,-7%,-33%,23%,38%
CC1=CC(C)[C@@H]2COC(c3ccc(O)cc3)[C@H]1C2C (stereo partly specified),-16%,.,.,0%,.,-7%,.,4%
Cc1c(C(=O)O)oc2ccc3c(c12)C(O)CC(C)(C)O3 (stereo unspecified),2%,.,.,1%,.,-4%,.,1%
CCN1CCN(c2ncnc3c2cnn3-c2ccc(C)c(C)c2)CC1,-8%,?,0.8%,.,17%,.,.,.
CCOc1ccc(OCCCC(=O)NC2=NCCS2)cc1,33%[activator],?,2.3%,-2%,-11%,3%,6%,-2%
Cc1nc(-c2ccc(-n3nncc3-c3ccco3)cc2)cs1,-16%,-3%,.,-3%,.,-7%,-1%,-15%
COC(=O)C1=C(C)NC(=O)CC1c1cccc(OC)c1OC (stereo unspecified),-5%,-9%,0.8%,0%,1%,7%,16%,-14%
COc1cc(NS(=O)(=O)c2ccc(NC(=O)COc3ccc(C)cc3)cc2)nc(OC)n1,-2%,-5%,-23%,11µM*,-10%,-22%,22%,-7%
COc1ccc(-n2nc(C(=O)NCC(=O)N3CCOCC3)c3ccccc3c2=O)cc1Cl,-4%,?,.,1%,.,3%,26%[46.1 µM],5%
Cc1cc(C)c(NC(=O)CSc2nnc3[nH]c(=O)cc(C)n23)c(C)c1,-5%,11%[46.1 µM],0.8%,.,1%,.,.,.
CC(C)C(=O)NNc1ccccc1,2%,3%,-0.2%,2%,-2%,-12%,?,277%
Cc1ccccc1-c1ccccc1CN1[C@@H](C(C)C)COCCS1(=O)=O,?,8%[46.1 µM],.,-32%,.,.,.,-2%
COc1ccccc1N1CCN(CC(O)COc2ccc3c(c2)CCC3)CC1 (stereo unspecified),?,?,1.2%,6%,6%,5%,?,-21%
NC(=S)N/N=C1\c2ccccc2-c2c(C(=O)O)cccc21,7%,.,.,16%,.,10%,.,-17%
CCSc1ncnc2c(C#N)c3n(c12)CCCCC3,-53%,3%,-2.5%,-6%,-2%,-81%,-6%,22%
CN(C)CC(C)(C)CNS(=O)(=O)c1ccc(Cl)s1,-12%,-11%[46.1 µM],.,1%,.,.,1%[46.1 µM],-28%
COc1ccc(CNC(=O)Cn2nc(C(F)(F)F)c3c2CCC3)cc1,-16%,-1%,7.6%,3%,1%,0%,-16%,-12%[3.69 µM]
CN(CC(=O)NCc1cccs1)S(=O)(=O)c1cccc2nsnc12,-16%,-4%,-0.7%,-2%,-1%,-11%,-6%,-10%
Cc1ccc(C(=O)Cn2nnc3ccccc32)cc1,30%[activator],10%,0.5%,1%,-9%,2%,?,?
CCC(C)c1ccccc1N1CC(C(=O)Nc2ccccc2N2CCCC2)CC1=O (stereo unspecified),-17%,-12%,.,5%,.,0%,-20%,-7%
Cc1nc2nc(C)c(NS(=O)(=O)c3ccc(Cl)cc3)c(=O)n2[nH]1,-5%,6%,.,-1%,.,3%,?,4%
O=C(CN1CCN(c2ncccn2)CC1)N1CCCC1,0%,-4%,.,-1%,.,0%,?,26%
COc1cc(OC)cc(C(=O)NC2CCCN(Cc3ccc(Cl)cc3)C2)c1 (stereo unspecified),-17%,.,.,6%,.,4%,.,-12%
CCC(C)N1CCN(C(=O)COc2ccc3ccccc3c2)CC1 (stereo unspecified),-3%,-19%,.,-1%,.,-6%,5%,-6%
O=C(NC1CC2CCCC(C1)N2Cc1ccco1)NC12CC3CC(CC(C3)C1)C2 (stereo unspecified),6%,-7%,5.1%,-4%,-1%,-5%,?,6%
O=C1c2ccccc2C(=O)N1CN(C(=O)COc1ccc(Cl)cc1Cl)c1cccc(F)c1,-6%,8%,-6.9%,7%,?,0%,?,-8%
COc1cc(NC(=O)c2ccc3c(c2)OCO3)ccc1NC(=O)C(C)C,10%,1%,1.5%,-5%,5%,-13%,14%,-16%
O=C(NCCc1ccc(Cl)cc1)c1cc2c(s1)-c1ccccc1OC2,0%,.,-22%,.,?,.,11%[46.1 µM],.
CCCCCCn1c(O)c(C=NC2CCCCC2N)c(=O)[nH]c1=O (stereo unspecified),-4%,?,-2.0%,-2%,-10%,0%,-28%,6%
CCNC(=S)N(Cc1ccc2c(c1)OCO2)C1CC(=O)N(c2ccc(F)cc2)C1=O (stereo unspecified),12%,-1%,2.2%,-3%,-7%,10%,4%,4%
CCCNC(=O)CSc1nc(-c2ccc(OC)cc2)cc(C(F)(F)F)n1,-9%,-22%[46.1 µM],1.2%,.,2%,.,.,.
O=C(CCN1C(=O)c2ccccc2S1(=O)=O)Nc1ccc(F)c([N+](=O)[O-])c1,-14%,-3%,.,-4%,.,.,2%,-11%
COc1cc(NS(=O)(=O)c2ccc(NC(=O)CCC(=O)O)cc2)nc(OC)n1,9%,5%[46.1 µM],.,-1%,.,-1%,3%[46.1 µM],5%
CCCCn1c(NCc2ccccc2NS(=O)(=O)c2ccc(C)cc2)nc2ccccc21,-12%,?,0.3%,-2%,-25%,-11%,11µM*,3%
Cc1ccc(NC(=O)Cc2nc(COC(=O)c3c(F)cccc3Cl)cs2)cc1,-23%,2%,.,-14%,.,.,-12%[46.1 µM],4%
COc1ccc(NC(=O)c2ccc3c(=O)n4nc(Nc5cc(C)ccc5C)sc4nc3c2)cc1,-9%,21%[46.1 µM],-2.7%,.,1%,.,.,.
COc1ccc(C(=O)Nc2cc(OC)c(NC(=O)c3ccco3)cc2OC)cc1,0%,-2%,-10%,-4%,?,-5%,?,1%
CC(=O)N1CCCC1c1nc2ccccc2n1Cc1cccc(Cl)c1 (stereo unspecified),-31%,-1%[46.1 µM],-3.4%,.,2%,.,-3%[46.1 µM],.
CC1(C)Cc2ccccc2C(NNC(=O)c2ccncc2)=N1,-4%,1%,1.0%,1%,-4%,1%,2%[46.1 µM],-13%
CCN(CC)CCNC(=O)c1ccccn1,-5%,25%,6.1%,3%,3%,5%,0%,-10%

# Random excerpt: 2 compounds from above
SMILES,StopGo reporter,LASV entry inh,Cruzain Triton,SARS PLP yeast,Cruzain inh noDet,NS1 inh,MARV entry inh,RE007 growth inh
CC1(C)Cc2ccccc2C(NNC(=O)c2ccncc2)=N1,-4%,1%,1.0%,1%,-4%,1%,2%[46.1 µM],-13%
COc1cc(NS(=O)(=O)c2ccc(NC(=O)COc3ccc(C)cc3)cc2)nc(OC)n1,-2%,-5%,-23%,11µM*,-10%,-22%,22%,-7%

# Single records (already shown).
# CC(=O)N1CCCC1c1nc2ccccc2n1Cc1cccc(Cl)c1 (stereo unspecified) is entered as StopGo reporter: -31%; LASV entry inh: -1%[46.1 µM]; Cruzain Triton: -3.4%; SARS PLP yeast: .; Cruzain inh noDet: 2%; NS1 inh: .; MARV entry inh: -3%[46.1 µM]; RE007 growth inh: .
# CCCNC(=O)CSc1nc(-c2ccc(OC)cc2)cc(C(F)(F)F)n1 is entered as StopGo reporter: -9%; LASV entry inh: -22%[46.1 µM]; Cruzain Triton: 1.2%; SARS PLP yeast: .; Cruzain inh noDet: 2%; NS1 inh: .; MARV entry inh: .; RE007 growth inh: .
# CCCCn1c(NCc2ccccc2NS(=O)(=O)c2ccc(C)cc2)nc2ccccc21 is entered as StopGo reporter: -12%; LASV entry inh: ?; Cruzain Triton: 0.3%; SARS PLP yeast: -2%; Cruzain inh noDet: -25%; NS1 inh: -11%; MARV entry inh: 11µM*; RE007 growth inh: 3%

# Next part:
SMILES,StopGo reporter,LASV entry inh,Cruzain Triton,SARS PLP yeast,Cruzain inh noDet,NS1 inh,MARV entry inh,RE007 growth inh
COCC(=O)Nc1cc(C(=O)Nc2cccc(C)c2C)ccc1Cl,.,13%,2.3%,-4%,-10%,1%,3%,-3%
CCOc1ccc(-c2nc(C#N)c(N3CCOCC3)o2)cc1,-16%,.,-19%,-11%,-11%,-16%,.,0%
Cc1c(N(C)S(=O)(=O)c2cc(C(=O)NCC3CCCO3)ccc2Cl)c(=O)n(-c2ccccc2)n1C (stereo unspecified),5%,-7%,.,.,.,.,3%[46.1 µM],1%
O=S(=O)(NC1CCCC1)c1ccccc1Cl,-21%,0%,3.2%,12%,5%,-7%,1%,1%
CCN(CC)Cc1c(O)ccc2c(C)c(CC(=O)OC)c(=O)oc12,4%,-3%,25µM*,13%,?,-5%,6%,-7%
COc1ccc(/C=N/NC(=O)CCc2nc3ccccc3[nH]2)cc1,-8%,-5%,-5.5%,5%,2%,-5%,?,-6%
COc1ccc2nc(NC(=O)c3cccnc3SC)sc2c1,9%,14%,-7.3%,-47%,10%,0%,?,-26%
COc1ccc(Cl)cc1S(=O)(=O)N1CCN(Cc2ccc3c(c2)OCO3)CC1,-18%,6%,-1.6%,0%,7%,-50%,-11%,-15%
COc1ccc(C(=O)NCC(=O)NCCc2c[nH]c3ccccc23)cc1OC,-6%,7%,.,2%,.,.,5%[46.1 µM],-5%
